AID504770 – growth inhibitors of E. coli YBA685 in a screen for V. cholerae RctB (chromosome II replication) inhibitors; E. coli YBA685 rctB-dependent plasmid, OD600 growth, 3 h; active compounds read low; AID 504770; 0.27% of 130,000 active; z-score (no concentration beside the values);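 active = z-score under -2 on both plates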;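 note: wells of about 30 µL received 100 nL stock; score is relative to mean and SD of the test wells; the first replicate is given; strong numbers were not always called active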
Ba CapD inh – blocks the Bacillus anthracis CapD enzyme | 0.23% of 140,000 active | purified CapD enzyme, fluorescence intensity read-out; active compounds read low; some hits fall short of the stated cut | z-score (no concentration beside the values);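 active = z-score under -4 in either of two replicates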;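 note: stock transfer was 100 nL into about 40 µL; score is relative to mean and spread of the plate; one replicate is shown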
Active calls of the source: *; x = not tested or not shown.

Every second line gives: AID504770 | Ba CapD inh
- COc1ccc(-c2nnc(NC(=O)C(C)Sc3ccc(C)cc3)s2)cc1 (stereo not given)
  2.35 | 0.065
- O=C(Cn1c(CN2CCOCC2)nc2sc3c(c2c1=O)CCC3)N1CCc2ccccc21
  0 | x
- CC(C)(C)C1CCc2nc(NC(=O)Cc3cn4ccsc4n3)sc2C1 (stereo not given)
  -0.05 | x
- O=S(=O)(NCc1cc(-c2ccccc2Cl)no1)c1ccc(Cl)cc1
  x | -0.15
- C=CCc1cc(C=C2C(=O)NC(=O)NC2=O)cc(OC)c1OC
  1.45 | -0.39
- CCCn1c(SCCCc2ccccc2)nc2c1c(=O)[nH]c(=O)n2C
  -0.45 | 0.105
- OCC(O)Cn1c(SCCSc2nc3ccccc3n2CC(O)CO)nc2ccccc21 (stereo not given)
  -0.9 | -0.615
- Cc1ccc(N/N=C(\C#N)C(=O)c2cc(C)nn2C(C)(C)C)cc1
  0.3 | -0.965
- COc1ccc2nc(NC(=O)c3nn(C(C)C)c(=O)c4ccccc34)sc2c1
  -0.55 | x
- CSc1nc(C)cc(OCC(=O)N2CCCCC2)n1
  -0.1 | -0.675
- COc1ccc(CCNc2cc(C)nc(N)n2)cc1OC
  -0.9 | 0.305
- CNC(=O)C1CC(=O)N(CCc2ccc(C)cc2)C1 (stereo not given)
  -0.1 | 0.42
- Cc1ccc(NC(=O)CSC2=C(C#N)C(c3cccs3)C3=C(CCCC3=O)N2)cc1C (stereo not given)
  x | 5.12
- CNC(=S)NC1CC2CCC(C1)N2Cc1ccccc1 (stereo not given)
  0.05 | x
- O=C(O)CCCCc1nc2ccccc2[nH]1
  -0.6 | x
- CN(C)c1ccc(C2ON2C2CCC(O)CC2)cc1 (stereo not given)
  0.3 | -2.01
- CC(C)OC(=O)c1cc(Cl)c(=O)n(Cc2ccc(Cl)cc2Cl)c1
  x | 0.275
- O=C(c1cccc(F)c1)N1CCN(C(=O)c2cccc3ccccc23)CC1
  -0.2 | x
- CC1CCCCN1C(=O)c1ccccc1NS(=O)(=O)c1ccc(F)cc1 (stereo not given)
  -0.1 | x
- c1cc2c(cc1-c1nnc(CC34CC5CC(CC(C5)C3)C4)o1)OCO2
  1.05 | 0.23
- CC(C)CNC(=O)c1cc(-c2cccc(O)c2)on1
  0 | -0.535
- CCOC(=O)C1=C(C)N=c2s/c(=C/c3ccc(OC(C)=O)cc3)c(=O)n2C1c1ccc(OC)c(OC)c1 (stereo not given)
  x | 0.08
- O=C(O)CN1C(=O)C2C3c4ccccc4C(c4ccccc43)C2C1=O (stereo not given)
  x | -0.14
- CC(=O)Nc1cccc(F)c1/C(N)=N/OC(C)=O
  0.4 | 0.805
- O=S(=O)(c1ccccc1C(F)(F)F)N1CCNCC1
  1.2 | x
- CCCCn1c(/N=C/c2nc3ccccc3n2C)nc2ccccc21
  1.25 | 0.105
- COc1ccc(Cl)cc1-n1c(=S)sc2c(=O)[nH]c(SCC(=O)NCC3CCCO3)nc21 (stereo not given)
  x | -0.27
- NC(=O)C1CC(=O)N(c2ccccc2)C1 (stereo not given)
  -1.25 | x
- O=C(Oc1ccc(-c2nccc(-c3ccccn3)n2)cc1)c1ccc(Cl)cc1
  x | 0.025
- Cc1cc(NC(=O)CC(C)C)c(=O)n(Cc2ccccc2F)c1
  0.9 | x
- Cc1cc(C)n2nc(SCc3nc4ccc(Cl)cc4n3CCO)nc2n1
  0.35 | x
- O=C1/C(=C\c2ccc(-c3ccc(Cl)c(Cl)c3)o2)SC(=S)N1C1CCS(=O)(=O)C1 (stereo not given)
  x | -0.015
- N=C1C(c2nc3ccccc3[nH]2)=C(O)C(c2ccccc2)N1c1ccc2[nH]c(=O)[nH]c2c1 (stereo not given)
  -0.6 | x
- NC(=O)/C=C/C(=O)Nc1ccccc1Cl
  0.25 | 0.455
- CC1C2CC(C/C2=N\NC(N)=S)C1(C)C (stereo not given)
  1.05 | -0.14
- O=C(CC1CCCCC1)OCn1nnc2ccccc2c1=O
  -0.4 | 1.07
- Cc1ccc(NC(=O)CCNS(=O)(=O)c2ccc3[nH]c(=O)ccc3c2)cc1Cl
  1.55 | -0.085
- CCOC(=O)c1nnn(-c2cccnc2)c1C
  0.3 | 0.625
- COC(=O)c1ccc(/C=N/NC(=O)CO)cc1
  -0.9 | -0.22
- CCOC(=O)c1sc(N)nc1-c1ccccc1
  1.15 | -0.59
- CCOc1ccc(NC(=O)/C(C#N)=C\c2cc(C)n(C)c2C)cc1
  -1.3 | x
- Cc1oc(C(=O)O)cc1COc1cccc2ccccc12
  0.6 | 0.635
- O=C(Nc1ccc(Cl)cc1)C(Cc1ccccc1)N1C(=O)C2C3c4ccccc4C(c4ccccc43)C2C1=O (stereo not given)
  x | -0.11
- COc1cc(/C=C(\C#N)c2nn(-c3ccccc3)c(-n3cccc3)c2C#N)cc(OC)c1OC
  x | 0.935
- CN(C)c1ccc(/C=C2/C(=N)N3N=C(COc4ccccc4)SC3=NC2=O)cc1
  0.75 | 12.8
- O=c1cc(-c2ccccc2)nc2c(-c3ccccc3)c(C(F)(F)F)[nH]n12
  2.45 | 33.1
- O=C1OC(c2ccccc2)=C/C1=C/c1ccc(Cl)cc1
  -0.2 | 1.71
- O=C1N=c2ccccc2=C1c1sc(N2CCCCC2)nc1O
  0.15 | x
- O=C(O)C12CC3CC(CC(O)(C3)C1)C2
  x | -0.16
- Cc1cc(-c2ccco2)n(CC(=O)NCc2ccccc2Cl)n1
  0.55 | 0.36
- N#Cc1ccc(S(=O)(=O)NC2CCN(c3ccccc3)CC2)cc1
  x | 0.13
- O=C(Nc1ccc(C(=O)N2CCOCC2)cc1)c1nn2c(C(F)(F)F)cc(-c3ccccc3)nc2c1Br
  x | -0.04
- O=C(N1CCCC1)C1(S(=O)(=O)c2ccc(Cl)cc2)CC1
  -0.45 | -0.11
- Cc1ccccc1OC(C)C(=O)N1CCCc2ccccc21 (stereo not given)
  0.5 | 0.015
- COCCn1c(=O)c(=O)[nH]c2cc(C(F)(F)F)ccc21
  x | 2.31
- CCc1nc(C#N)c(N2CCCCC2)o1
  0.2 | 1.22
- Cc1ccc(-n2sc(=O)n(Cc3ccc(F)cc3)c2=O)cc1
  x | 0.075
- O=C(O)C1C2CCC1C(O)C2 (stereo not given)
  x | 0.11
- COc1ccc(-c2nc(SCC(=O)Nc3cccc(C)c3)c3c(=O)n(C)c(=O)n(C)c3n2)cc1
  1.65 | 30.3
- Cc1oc(-c2ccccc2)nc1CSc1nc2ncccc2[nH]1
  0.65 | 0.375

In a second layout: five of the compounds above
compound | AID504770 | Ba CapD inh
N#Cc1ccc(S(=O)(=O)NC2CCN(c3ccccc3)CC2)cc1 | x | 0.13
O=C(Nc1ccc(C(=O)N2CCOCC2)cc1)c1nn2c(C(F)(F)F)cc(-c3ccccc3)nc2c1Br | x | -0.04
O=C(N1CCCC1)C1(S(=O)(=O)c2ccc(Cl)cc2)CC1 | -0.45 | -0.11
Cc1ccccc1OC(C)C(=O)N1CCCc2ccccc21 (stereo not given) | 0.5 | 0.015
COCCn1c(=O)c(=O)[nH]c2cc(C(F)(F)F)ccc21 | x | 2.31

By substructure: the entries above with a tert-butyl group (2)
Every second line gives: AID504770 | Ba CapD inh
- CC(C)(C)C1CCc2nc(NC(=O)Cc3cn4ccsc4n3)sc2C1 (stereo not given)
  -0.05 | x
- Cc1ccc(N/N=C(\C#N)C(=O)c2cc(C)nn2C(C)(C)C)cc1
  0.3 | -0.965

(listing goes on)
Every second line gives: AID504770 | Ba CapD inh
- O=C(Nc1c2c(nn1-c1ccc(F)cc1)CS(=O)(=O)C2)C1(c2ccc(Cl)cc2)CCCC1
  x | -1.17
- COC(=O)C1=NNC2(C)C(=O)N(c3ccccc3)C(=O)C12 (stereo not given)
  0.05 | 0.465
- Cn1c(=O)c2c(n(C)c1=O)=NC1(CCCCC1)N=2
  0.55 | x
- Cc1ccc2nc(-c3ccccc3)c(NC(=O)c3ccco3)n2c1
  x | -0.125
- CCCC1=NN2C(=N)/C(=C/c3ccc(OCCOc4ccccc4)cc3)C(=O)N=C2S1
  0.05 | 0.05
- O=C(NC(=O)c1cc2sccc2nc1C(F)(F)F)Nc1ccncc1
  x | -0.755
- CN(Cc1ccccc1)C(=O)COC(=O)c1ccc(I)cc1
  0.7 | 0.295
- Nc1ccccc1-c1ccccc1N
  0 | 7.57
- Nc1cc(N)nc(SCC(=O)NC(=O)NC2CCCC2)n1
  1.15 | x
- O=C(/C=C/c1ccc(F)cc1Cl)NNC(=O)OCCc1ccccc1Cl
  x | 8.55
- COc1ccc2cc(C(C)C(=O)Nc3cc(Cl)cc(Cl)c3)ccc2c1 (stereo not given)
  1.5 | 1.69
- COc1ccc(CCNC(=O)CN2C3CCCC2CC(=O)NC3)cc1OC (stereo not given)
  -0.6 | x
- COc1cccc(NC(=O)Nc2nnc(N3CC(C)CC(C)C3)s2)c1 (stereo not given)
  -1.05 | -0.555
- CCOc1ccc2nc(SCCN(C)C)[nH]c2c1
  -0.05 | 0.445
- CNC(=O)CSc1cn(CC(=O)N2CCC(C)CC2)c2ccccc12
  -1.15 | 71.5
- C#CC(CC)(CC)NC(=O)c1oc2ccccc2c1CSc1nc(C)cs1
  -0.95 | x
- O=C1ON=C2C3CC4CC12CC1(C3)C(=O)ON=C41
  -1.8 | -0.315
- CCN1CCN(C(=O)c2ccc3c(c2)sc2nc(-c4ccc(C)cc4)cn23)CC1
  -0.05 | 1.14
- O=C(c1cnc2sccn2c1=O)N1CCCc2ccccc21
  -0.6 | x
- CCOC(=O)/C=C1\SCC(=O)N1CCOC(=O)c1ccccc1SC
  0 | x
- O=C(Nc1cccc2cccnc12)C1CC(=O)N(C2CCCC2)C1 (stereo not given)
  0.15 | x
- Cc1cc(C)nc(NS(=O)(=O)c2ccc(Nc3cc(Cl)c4nonc4c3[N+](=O)[O-])cc2)n1
  x | -1.15
- O=C(NNC(=S)Nc1cc(Cl)ccc1Cl)C(O)(c1ccccc1)c1ccccc1
  x | -0.465
- CCC1CC(CN=CC2=C(O)CC(C)(C)CC2=O)C1(C)C (stereo not given)
  0.2 | 0.44
- CCOC(=O)c1c(CN2CCN(c3ccccc3C)CC2)n(-c2ccccc2)c2cc(Br)c(OC(C)=O)cc12
  x | -0.105
- COc1ccc(CNc2ccc3nc4ccc(C)cc4c(=O)n3n2)cc1
  -1.1 | 2.54
- CC1(C)CC(=O)C=C(NCCCn2ccnc2)C1
  0.3 | 36
- CSc1nncc(-c2ccc(Cl)cc2)n1
  -0.15 | -1.04
- Cc1cc(C)c(NC(=O)CSc2ccc3nnc(-c4ccccc4)n3n2)c(C)c1
  -0.5 | 0.945
- COC(=O)c1cc(=O)c2ccc(OC)cc2o1
  -0.8 | x
- CCOC(=O)c1oc2ccccc2c1COC(=O)COc1ccccc1OCC
  1.35 | x
- Cn1nc(-c2ccc(Cl)cc2)c2cc(C(=O)N3CCCC3)sc21
  -0.55 | -0.31
- O=S(=O)(NC1CCCCC1)c1cccc2nsnc12
  x | -0.35
- Cn1ncc2c(=O)n(CC(=O)Nc3cccnc3Cl)cnc21
  -0.25 | x
- CCC(NC(=O)c1ccccc1NC(=O)c1ccco1)C(=O)Nc1ccc(C)cc1 (stereo not given)
  -1.2 | x
- Clc1ccc(-c2nc3c4ccsc4ncn3n2)cc1
  -0.85 | -0.11
- CC(C)Cn1c(SCc2ccc(C#N)cc2)nc2ccccc2c1=O
  0.25 | x
- Cn1c(=O)c2cc(C(=O)N3CCCCC3)sc2c2ccccc21
  -0.6 | 2.29
- O=C1C2OCC(O2)[C@H]2[C@H]1[C@H]1C=Cc3ccccc3N1[C@@H]2C(=O)c1ccc(F)cc1 (stereo not given in full)
  x | 5.9
- COc1ccc(-c2cn3ccc(C)cc3n2)cc1Br
  x | 7.14
- Cc1ccc2oc(=O)c3cc(C(=O)NCCCN4CCCC4)sc3c2c1
  0.4 | 50.3
- CC1=COC=C(C=NCc2ccccc2)N1c1ccccc1
  0.7 | -1.47
- O=C(NC1CCS(=O)(=O)C1)C1CCCC1 (stereo not given)
  -0.7 | x
- COC(=O)c1cscc1NC(=O)CC(CC(=O)O)c1ccccc1 (stereo not given)
  -1.85 | 0.225
- COc1ccc(-c2cc(-c3cccs3)nc3sc4c(O)cc(=O)[nH]c4c23)cc1
  x | 3.29
- Cc1ccc(N=C2NC(=O)CS2)c(C)c1
  0.5 | -0.125
- Cc1cc(NS(=O)(=O)c2ccc(NS(=O)(=O)c3ccc(F)cc3)cc2)no1
  x | -0.245
- CCc1cccc(NS(=O)(=O)c2cc(Br)cc3c2N(C(=O)C2CC2)CC3)c1
  -2.9* | 21
- Cc1ccc(CNC(=O)C2CCC(CNc3nc(=S)[nH]c4ccccc34)CC2)o1 (stereo not given)
  0.5 | -0.09
- O=C(Cc1ccccc1)NCCN1CCCC1
  -0.85 | 0.76
- CCOC(=O)Nc1ccc2c(C)cc(=O)oc2c1
  -0.65 | 55.8
- Cc1ccc2[nH]cc(CCNC(=O)C3CCCO3)c2c1 (stereo not given)
  -0.95 | x
- Cc1cc(C(=O)Nc2ccc3c(c2)OCCO3)oc1C
  -0.55 | -0.275
- CN(C)C=Nc1ccc2nonc2c1
  -0.7 | -2.48
- O=C(O)c1ccc2c(c1)ncn2C1CCCC1
  0.35 | 0.38
- CC1(C)N=C(c2ccccc2)C(=S)N1C(=O)c1ccccc1
  0 | 0.1
- Cc1cc2c(cc1S(=O)(=O)NCC1CCCO1)n(C)c(=O)c(=O)n2C (stereo not given)
  1.85 | 9.91
- Clc1cccc(C2N(Cc3ccccc3)CCN2Cc2ccccc2)c1
  x | -0.13

Bioassay records deposited in PubChem BioAssay by ICCB-Longwood Screening Facility, Harvard Medical School.
